From PubChem
Vaccinia stage: blocks a specific stage of Vaccinia orthopoxvirus infection | 0.01% of 89,000 active | activity change (mCherry), % (test concentration not listed) | Vaccinia-infected cells, mCherry/Venus stage reporter fluorescence; active compounds read low; some inactives read as strong as hits;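 active means mCherry past -33% and 40 or more points under the early reporter, replicates agreeing; inconclusive means past -33% without that gap or agreement; tested in A549 cells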;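 further: scaled between vehicle wells and reference inhibitor wells; 23 nL library stock went into each well; one replicate is shown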
Vaccinia stage Venus: second read-out of Vaccinia stage, no call of its own (marks repeat the call); activity change (Venus), %; measured here: Venus reporter, other viral stage;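 negative = less Venus signal; first of two replicates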
Active calls of the source: *; ? = inconclusive; . = no result given.

Compound	Vaccinia stage	Vaccinia stage Venus
Cc1ccc(S(=O)(=O)Nc2ccc3c(c2)C(=O)N([C@H](C)CO)C[C@@H](C)[C@H](CN(C)C(=O)Nc2c(C)noc2C)O3)cc1	-0.2	0.6
COc1cccc(CNC(=O)C[C@H]2CC[C@H](NS(=O)(=O)c3ccccc3OC)[C@H](CO)O2)c1	9.5	3.9
COc1cccc(-c2cn(CC[C@@H]3CC[C@H](NC(=O)CN(C)C)[C@@H](CO)O3)nn2)c1	2.8	3.2
CC(C)CC#Cc1ccc2c(c1)O[C@@H](CN(C)C(=O)c1cnccn1)[C@@H](C)CN([C@@H](C)CO)S2(=O)=O	-3.7	-10.2
O=C(C[C@H]1C=C[C@H](NC(=O)CC2CC2)[C@@H](CO)O1)NCc1ccc(-c2ccccc2)cc1	-11.5	-7.0
C[C@@H]1CN([C@@H](C)CO)C(=O)c2cccc(NC(=O)C3CC3)c2O[C@@H]1CN(C)S(C)(=O)=O	-0.8	4.0
O=C(C[C@H]1CC[C@H]2[C@@H](COC[C@H](O)CN2Cc2ccc3c(c2)OCO3)O1)N1CCOCC1	10.3	1.9
C[C@@H]1CN([C@@H](C)CO)S(=O)(=O)c2ccc(C3=CCCCC3)cc2O[C@H]1CN(C)CC1CCCC1	-0.8	15.0
CO[C@H]1CN(C)C(=O)c2cc(NS(C)(=O)=O)ccc2OC[C@@H](C)N(CC2CCOCC2)C[C@H]1C	10.3	-0.6
CCCC#Cc1ccc2c(c1)O[C@@H](CN(C)C(=O)c1ccccc1)[C@@H](C)CN([C@@H](C)CO)S2(=O)=O	-1.7	-2.3
COc1ccc(S(=O)(=O)Nc2ccc3c(c2)C(=O)N([C@@H](C)CO)C[C@@H](C)[C@H](CN(C)C)O3)cc1	11.9	15.0
COc1ccc2c3c([nH]c2c1)[C@H](CO)N(C(=O)C1CC1)CC31CCN(Cc2cccc(F)c2)CC1	?	.
C/C=C/c1ccc2c(c1)O[C@H](CN(C)C(=O)C1CCOCC1)[C@H](C)CN([C@H](C)CO)S2(=O)=O	30.3	13.5
N#C[C@H]1N[C@H](CO)[C@@H]1c1ccc(-c2cccc(F)c2)cc1	5.9	5.4
CC(=O)N1CC(=O)N2[C@H](CO)[C@H](c3ccc(-c4ccncc4)cc3)[C@@H]2C1	6.8	1.6
O=C(NC[C@@H]1CC[C@@H]2[C@@H](CN2S(=O)(=O)c2ccccc2[N+](=O)[O-])O1)C1CCOCC1	12.6	6.0

Some of the entries above, set out differently.
Under each structure – Vaccinia stage | Vaccinia stage Venus
> C/C=C/c1ccc2c(c1)O[C@H](CN(C)C(=O)C1CCOCC1)[C@H](C)CN([C@H](C)CO)S2(=O)=O
 : 30.3 | 13.5
> N#C[C@H]1N[C@H](CO)[C@@H]1c1ccc(-c2cccc(F)c2)cc1
 : 5.9 | 5.4
> CC(=O)N1CC(=O)N2[C@H](CO)[C@H](c3ccc(-c4ccncc4)cc3)[C@@H]2C1
 : 6.8 | 1.6
> O=C(NC[C@@H]1CC[C@@H]2[C@@H](CN2S(=O)(=O)c2ccccc2[N+](=O)[O-])O1)C1CCOCC1
 : 12.6 | 6.0

The list continues.
Compound	Vaccinia stage	Vaccinia stage Venus
Cc1ccc(S(=O)(=O)N2CC[C@@H]3[C@H]2c2cc(-c4cccc(C(=O)N(C)C)c4)ccc2N[C@@H]3CO)cc1	?	.
CO[C@H]1CN(C)C(=O)c2cc(NC(=O)Nc3ccccc3)ccc2OC[C@H](C)N(C(=O)CN(C)C)C[C@@H]1C	17.5	6.0
Cc1ccc(S(=O)(=O)N(C)C[C@@H]2Oc3c(NS(=O)(=O)c4ccc(Cl)cc4)cccc3C(=O)N([C@@H](C)CO)C[C@@H]2C)cc1	-27.4	-10.1
C/C=C/c1ccc2c(c1)O[C@@H](CN(C)S(=O)(=O)c1ccc(F)cc1)[C@@H](C)CN([C@H](C)CO)S2(=O)=O	?	.
Cc1ccccc1S(=O)(=O)N1[C@H](C#N)[C@@H](c2ccc(-c3ccc(F)cc3)cc2)[C@@H]1CO	-32.7	-26.9
CO[C@H]1CN(C)C(=O)c2ccc(NC(=O)Nc3cc(F)ccc3F)cc2OC[C@@H](C)NC[C@H]1C	-5.6	-5.2
COc1ccc(NC(=O)Nc2cccc3c2O[C@@H](CN(C)S(=O)(=O)c2ccc(C)cc2)[C@H](C)CN([C@H](C)CO)C3=O)cc1	13.1	6.8
C[C@@H]1CCCCO[C@@H](CN(C)C(=O)Nc2ccc(F)cc2)[C@@H](C)CN([C@@H](C)CO)C(=O)c2cc(NC(=O)Nc3ccc(F)cc3)ccc2O1	16.2	7.5
Cc1ccccc1-c1ccc([C@H]2[C@H]3CN(C(=O)Cc4ccccn4)CCCCN3[C@H]2CO)cc1	?	.
CO[C@H]1CN(C)C(=O)c2cc(NC(=O)C3CCOCC3)ccc2OC[C@H](C)N(CC2CC2)C[C@H]1C	4.1	9.5
CN(C)CC(=O)Nc1ccc2c(c1)[C@@H]1C[C@@H](CC(=O)NCc3cc(F)ccc3F)O[C@@H](CO)[C@@H]1O2	-7.0	-6.1
C[C@@H]1CN([C@H](C)CO)C(=O)Cc2cc(NC(=O)C3CCCCC3)ccc2O[C@@H]1CN(C)C(=O)NC1CCCCC1	14.9	9.6
C[C@H]1CN([C@@H](C)CO)C(=O)c2cccc(NS(=O)(=O)c3ccc(Cl)cc3)c2O[C@@H]1CN(C)S(=O)(=O)c1ccccc1	2.2	-2.0
C[C@@H](C(=O)N(C)C[C@@H]1OCc2ccccc2-c2ccccc2C(=O)N([C@@H](C)CO)C[C@@H]1C)c1ccccc1	3.8	-6.3
C[C@@H]1CN([C@@H](C)CO)C(=O)Cc2cc(NC(=O)Nc3ccccc3)ccc2O[C@@H]1CN(C)S(C)(=O)=O	11.8	2.3
CC(C)C#Cc1ccc2c(c1)O[C@H](CN(C)S(=O)(=O)c1cn(C)cn1)[C@@H](C)CN([C@@H](C)CO)S2(=O)=O	0.3	-9.5
O=C(C[C@@H]1C=C[C@@H](NC(=O)C2CCC2)[C@@H](CO)O1)NCc1ccccc1Cl	7.9	6.6
O=C(CCN1CCCCC1)N[C@H]1CC[C@H](CCNS(=O)(=O)c2ccc(F)cc2)O[C@H]1CO	5.7	3.2
COc1ccc(NC(=O)N2CCCCN3[C@H](C2)[C@@H](c2ccc(-c4ccccc4F)cc2)[C@@H]3CO)cc1	?	.
CCCN(C)C[C@@H]1OCCCC[C@@H](C)Oc2ccc(NS(=O)(=O)c3cn(C)cn3)cc2C(=O)N([C@H](C)CO)C[C@@H]1C	9.8	-2.3
COc1cccc(CNC(=O)C[C@@H]2C=C[C@@H](NS(=O)(=O)c3ccccc3OC)[C@@H](CO)O2)c1	-8.5	4.0
Cc1ccc(S(=O)(=O)Nc2ccc3c(c2)C(=O)N([C@H](C)CO)C[C@H](C)[C@H](CN(C)S(=O)(=O)c2ccc(C)cc2)OCCCC[C@H](C)O3)cc1	-27.5	-23.6
CCCN(C)C[C@@H]1Oc2cc(C#C[C@@H](C)O)ccc2S(=O)(=O)N([C@@H](C)CO)C[C@@H]1C	-3.6	-0.4
CCCNC(=O)N[C@H]1CC[C@H](CCNS(=O)(=O)c2cccc(F)c2)O[C@@H]1CO	6.2	5.7
CCC(=O)N(C)C[C@@H]1Oc2cc(C3=CCCC3)ccc2S(=O)(=O)N([C@@H](C)CO)C[C@@H]1C	-6.3	0.3
C[C@H](O)C#Cc1ccc2c(c1)O[C@@H](CN(C)C(=O)C1CCCCC1)[C@@H](C)CN([C@@H](C)CO)S2(=O)=O	5.6	-4.6
COc1ccc(S(=O)(=O)Nc2ccc3c(c2)C(=O)N([C@@H](C)CO)C[C@@H](C)[C@@H](CN(C)CC2CC2)OCCCC[C@@H](C)O3)cc1	0.3	-9.4
C[C@@H]1CN([C@@H](C)CO)C(=O)c2cc(NS(=O)(=O)c3ccc(Cl)cc3)ccc2O[C@H]1CN(C)S(=O)(=O)c1ccc(F)cc1	4.6	3.1
C[C@H]1CN([C@@H](C)CO)C(=O)c2cccc(NC(=O)c3nc4ccccc4s3)c2O[C@H]1CN(C)C(=O)Nc1cccc2ccccc12	-6.4	-1.8
CO[C@H]1CN(C)C(=O)c2ccc(NC(=O)c3ccc(F)cc3)cc2OC[C@H](C)N(C)C[C@@H]1C	-2.9	1.2
CCC(=O)Nc1ccc2c(c1)C(=O)N(C)[C@@H]1CC[C@H](CC(=O)O)O[C@H]1CO2	3.5	-6.5
CO[C@H](CN(C)C(=O)C1CC1)[C@H](C)CN(C(=O)Nc1ccc(C(F)(F)F)cc1)[C@@H](C)CO	-1.8	-1.4
COc1ccccc1NC(=O)N[C@H]1CC[C@@H](CCNS(=O)(=O)c2ccccc2)O[C@H]1CO	-5.1	-4.2
COc1ccc(S(=O)(=O)Nc2ccc3c(c2)C(=O)N([C@@H](C)CO)C[C@H](C)[C@@H](CN(C)C)O3)cc1	5.8	3.4
CCCC#Cc1ccc2c(c1)O[C@@H](CN(C)C(=O)CC1CC1)[C@@H](C)CN([C@@H](C)CO)S2(=O)=O	0.1	-3.0
COC(=O)[C@@H]1[C@@H](CO)[C@@H]2Cn3c(ccc(/C=C/c4ccccc4)c3=O)[C@H]1N2CC1CCCC1	?	.
C[C@@H]1CN([C@H](C)CO)C(=O)c2cc(NC(=O)C3CCCCC3)ccc2O[C@@H](C)CCCCO[C@H]1CN(C)Cc1ccc(Cl)c(Cl)c1	-5.9	5.6
C[C@@H]1CN([C@@H](C)CO)C(=O)c2cc(/C=C/c3ccccc3)cnc2O[C@@H]1CN(C)Cc1cccnc1	-7.6	-7.7
C[C@H]1CN([C@@H](C)CO)C(=O)c2cccc(NC(=O)Nc3ccc(F)cc3)c2O[C@@H]1CN(C)Cc1ccc(C(F)(F)F)cc1	-20.5	-14.7
COCC(=O)N1CC2(C1)[C@H](c1ccc(-c3ccccc3)cc1)[C@H](CO)N2C(C)=O	9.4	13.1
CCCC(=O)N1CC2(CCN(Cc3nccs3)CC2)c2c([nH]c3cc(OC)ccc23)[C@@H]1CO	-12.9	-11.3
O=C(c1ccncc1)N1CC(=O)N2[C@H](CO)[C@@H](c3ccc(/C=C/c4ccccc4)cc3)[C@@H]2C1	-26.2	-17.8
Cc1cc(C(=O)Nc2cccc3c2O[C@@H](CN(C)S(=O)(=O)c2cn(C)cn2)[C@@H](C)CN([C@@H](C)CO)C3=O)n(C)n1	14.9	4.6
COc1ccc(NC(=O)Nc2ccc3c(c2)C(=O)N([C@@H](C)CO)C[C@H](C)[C@@H](CN(C)CC2CC2)OCCCC[C@H](C)O3)cc1	-0.2	-3.2
O=C(C[C@@H]1C=C[C@H](NS(=O)(=O)c2ccc(F)cc2)[C@H](CO)O1)N1CCN(c2ccccc2)CC1	-1.0	0.2
C[C@@H]1CN([C@H](C)CO)C(=O)c2cc(C3=CCCC3)cnc2O[C@H]1CN(C)Cc1ccccn1	20.1	12.9
CCc1cnc(N2[C@H](C#N)[C@H](c3ccc(C4=CCCC4)cc3)[C@@H]2CO)s1	-2.7	2.6
COc1cccc(NC(=O)N(C)C[C@H]2OCc3cn(nn3)CCCC(=O)N([C@H](C)CO)C[C@@H]2C)c1	10.7	10.6
O=C(Cc1ccncc1)NCC[C@@H]1CC[C@@H](NC(=O)C2CCOCC2)[C@@H](CO)O1	6.9	4.0
C[C@H](CO)N1C[C@H](C)[C@H](CN(C)C(=O)Nc2ccc3c(c2)OCO3)Oc2ccc(NC(=O)C3CCCCC3)cc2CC1=O	4.1	-0.2
O=C(C[C@H]1CC[C@@H]2[C@H](COC[C@@H](O)CN2Cc2cc(F)ccc2F)O1)N[C@H]1CCN(Cc2ccccc2)C1	-8.8	-8.9
CC(C)NC(=O)Nc1ccc2c(c1)C(=O)N([C@H](C)CO)C[C@H](C)[C@H](CN(C)C(=O)c1ccccc1)OCCCC[C@H](C)O2	-3.5	-10.2
CO[C@H]1CN(C)C(=O)c2cc(NC(=O)C3CC3)ccc2OC[C@H](C)N(Cc2cccnc2)C[C@@H]1C	-0.9	2.4
COCC#Cc1cnc2c(c1)C(=O)N([C@@H](C)CO)C[C@@H](C)[C@@H](CN(C)C(=O)C1CCC1)O2	-1.3	8.1
COCC(=O)Nc1ccc2c(c1)C(=O)N(C)[C@H]1CC[C@@H](CC(=O)NCCc3ccncc3)O[C@H]1CO2	-3.9	7.6
COc1ccc(NC(=O)Nc2ccc3c(c2)CC(=O)N([C@@H](C)CO)C[C@@H](C)[C@@H](CN(C)C(=O)NC2CCCCC2)O3)cc1	12.0	8.9

New compounds follow
Compound	Vaccinia stage	Vaccinia stage Venus
COc1ccc(S(=O)(=O)Nc2ccc3c(c2)C(=O)N([C@@H](C)CO)C[C@@H](C)[C@H](CN(C)Cc2ccc(Oc4ccccc4)cc2)O3)cc1	?	.
CO[C@@H]1CN(C)C(=O)c2cc(NC(=O)C3CCC3)ccc2OC[C@@H](C)N(CC2CCCCC2)C[C@H]1C	-21.3	-12.8
C[C@@H]1CN([C@@H](C)CO)C(=O)c2cccc(NC(=O)Nc3ccc(F)cc3)c2O[C@@H]1CN(C)C(=O)Nc1ccc(C(F)(F)F)cc1	?	.
CCC(=O)N(C)C[C@@H]1Oc2cc(-c3ccccc3C)ccc2S(=O)(=O)N([C@@H](C)CO)C[C@H]1C	-27.2	-23.1
C[C@@H]1CN([C@H](C)CO)C(=O)Cc2cc(NC(=O)CCC(F)(F)F)ccc2O[C@@H]1CN(C)S(=O)(=O)c1cccs1	10.9	9.9
C[C@@H](NC(=O)[C@H]1[C@H](CO)[C@H]2Cn3c(ccc(-c4cccnc4)c3=O)[C@H]2N1C)c1ccccc1	10.3	9.3
COc1cccc(C(=O)Nc2ccc3c(c2)C(=O)N(C)[C@H]2CC[C@@H](CC(=O)NCC4CC4)O[C@H]2CO3)c1	-4.5	-6.4

The list is partial; the hit share may differ from the screen's.
